miR-21 reporter – miR-21 reporter, rising signal | HeLa miR-21 FLuc reporter, luciferase, 48 h | Potency, µM (doses to about 38.3 µM), inactives show at the highest dose reporter change, positive = more light | 340,000 tested, under 10 active | AID 2288; active = well fitted rising curve with a large enough effect; inconclusive = small, poorly fitted or top-dose-only effect; inactive = no such curve, though single readings can be large or run the other way;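 also: % of control where 0% means no effect; miR-21 action dims this reporter so a rising signal means less miR-21 action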
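HeLa cells endogenously expressing miR-21, stably carrying CMV-driven firefly luciferase with a downstream miR-21 binding site, 2000 cells/well. Titrations up to approximately 40 uM, 48 hours; luciferase luminescence read.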
GLA inh pH 4.5 – blocks human alpha-galactosidase A at pH 4.5; purified enzyme, 4-MU-alpha-Gal fluorescence, pH 4.5; AID 1467; P06280; 230,000 tested, under 10 active; activity change, negative = inhibition, % at 105 µM; inconclusive = small, poorly fitted or top-dose-only inhibition, or a rising curve; inactive = flat fitted curve, though single readings scatter; no compound was filed as active;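 also: 0% = full activity with enzyme and -100% = basal without enzyme; dose as in the result columns while the protocol names 77 µM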
Target sequence (P06280 whole entry, looked up): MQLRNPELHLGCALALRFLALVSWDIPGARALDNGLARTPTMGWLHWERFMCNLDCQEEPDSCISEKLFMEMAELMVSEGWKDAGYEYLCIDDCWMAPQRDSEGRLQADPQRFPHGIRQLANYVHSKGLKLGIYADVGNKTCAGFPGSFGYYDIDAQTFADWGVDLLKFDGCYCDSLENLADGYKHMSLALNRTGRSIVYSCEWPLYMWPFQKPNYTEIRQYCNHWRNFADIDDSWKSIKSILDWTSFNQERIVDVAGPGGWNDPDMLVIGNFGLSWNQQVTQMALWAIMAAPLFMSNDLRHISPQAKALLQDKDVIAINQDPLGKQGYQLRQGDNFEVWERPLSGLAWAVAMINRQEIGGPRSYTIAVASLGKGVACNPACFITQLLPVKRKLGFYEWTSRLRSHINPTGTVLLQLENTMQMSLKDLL
Rango release inh – inhibitors of RanGTP-induced Rango-importin beta complex dissociation. O95149+P62826. Biochemical FRET Rango-importin beta, RanGTP-induced dissociation. Potency, µM (series often up to 46.1 µM), without a hit: at the top dose activity change, negative = inhibition. hit rate 0.071% among 340,000; active means falling FRET ratio curve, often poorly fitted, with flat reads before Ran was added; inconclusive means other falling curves, or compound fluorescence or quenching; inactive means flat or rising ratio curve;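 also: potency is read from the fitted curve at half-maximal effect; % of control where 0% means no effect; nearly all actives have a fitted effect of over 45% in size; -100% = wells without RanGTP and RCC1; the record marks most hits as doubtful in a second field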
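FRET read at 45 min, room temperature: inhibitors block the CFP/YFP signal rise when RanGTP (0.6 uM Ran, 2 mM GTP, 0.2 uM RCC1) frees Rango (0.1 uM) from importin beta (0.25 uM). Pre-read after 5 min compound exposure flags interference.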
Rango complex inh – prevents formation of the Rango-importin beta complex | AID 540263 | Q14974 | Potency, µM (highest dose often 92.2 µM), inactives show at the top dose inhibition of complex formation | Rango CFP/YFP FRET sensor + importin beta, 45 min | hit rate 0.031% among 340,000; active = rising FRET ratio curve, often small or poorly fitted; inconclusive = mostly compound fluorescence or quenching in the first reads; inactive = flat curves in all reads;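 also: potency is read from the fitted curve at half-maximal effect; 0% = DMSO wells and 100% = buffer wells lacking importin beta; nearly all actives have a fitted effect of over 15% in size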
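Inhibition scored from the CFP 486 nm/YFP 530 nm FRET ratio 45 min after adding 0.125 microM importin beta to 50 nM Rango biosensor preincubated 5 min with compound (room temperature, PBS with DTT, Tween-20, BSA). No-importin wells as positive control.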
An asterisk follows results filed as active; ? = inconclusive; . = no result given; [ ] = another dose, or the depositor's remark.

miR-21 reporter,GLA inh pH 4.5,Rango release inh,Rango complex inh,molecule
-13%,-3,-3%,-1.0%,COc1cccc(/C=N/NC(=O)CCCc2ccc(OC)c(C)c2)c1
?,-9,19%,-5.9%,O=C(c1cccc(C(=O)N2CCN(c3ccc(F)cc3)CC2)c1)N1CCN(c2ccc(F)cc2)CC1
10%,1,2%,1.7%,CCOC(=O)N/N=C/c1cn(CCCOc2ccc(C)cc2)c2ccccc12
-20%,.,-6%,1.5%,O=C(N/N=C/c1ccc(F)cc1)c1cccc(NC(=O)c2ccc(F)cc2)c1
-7%,-2,45%,?,O=C(NCC1CCCO1)C1CCN(S(=O)(=O)Cc2ccccc2)CC1 (centres undefined)
-49%,-3,15%,-1.0%,COc1cccc(-c2nc(-c3ccccc3)no2)c1
-3%,9,10%,0.3%,O=C(NC1CCCCC1)N(Cc1ccc(F)cc1)Cc1nc2ccccc2c(=O)[nH]1
-10%,-1,13%,2.6%,COc1ccc2cc(S(=O)(=O)N3CCN(C)CC3)ccc2c1
.,.,-1%,7.7%,O=C(Nc1ccc(N2CCOCC2)c(S(=O)(=O)Nc2ccccc2Cl)c1)c1ccccc1
1%,2,1%,6.2%,COc1cccc(CN2CCNC(=O)C2CC(=O)NCCCn2ccnc2)c1 (centres undefined)
-2%,-5,0%,-4.0%,CCn1nnnc1NCc1cccc(Cl)c1
2%,5,-2%,-1.5%,CCOC(=O)c1c(C)n(C)c2ccc(OC)c(NC(=O)CN3CCC4(CC3)OCCO4)c12
-7%,-4,0%,?,Cc1c(C(=O)O)sc2ncnc(N3CCCCC3C)c12 (centres undefined)
-1%,-4,-7%,-1.7%,COc1cccc(C(=O)Nc2ccc(-n3nncc3C(C)(C)C)cc2)c1
.,.,1%,10%,O=C1NC2c3c(I)sc(I)c3C(=O)C2O1 (centres undefined)
.,.,3%,-3.8%,COc1ccc(C(=O)NCc2ccc(Cl)cc2)cc1S(=O)(=O)N1CCCC1
-1%,-4,9%,-0.6%,Cc1cc(NC(=O)CSc2ccc3nnc(-c4ccc(F)cc4)n3n2)no1
3%,.,-5%,-0.5%,Fc1cc(F)cc(NC(=S)NCCCN2CCOCC2)c1
-2%,.,-2%,-0.5%,Cc1cc(NS(=O)(=O)c2ccc(NC(=O)Cc3ccccc3)cc2)nc(C)n1
3%,8,-5%,2.1%,Cc1ccccc1NC(=O)Nc1ccccc1N1CCCCC1
19%,-16,-8%,-0.8%,CCOC(=O)Cc1nn(Cc2nc(-c3ccc(C)cc3)cs2)c(=O)c2ccccc12
-2%,7,0%,0.5%,CC1CCc2nn(CC(=O)NC3CCCC(C)C3C)cc2C1 (centres undefined)
-14%,-9,-13%,?,NC(=O)c1cc[n+](CC(=O)c2ccc(NC(=O)c3ccccc3)cc2)cc1
-8%,-8,-11%,4.5%,CC(C)CNC(=S)NNC(=O)c1csc2c1CCC(C)C2 (centres undefined)
-48%,6,6%,-1.3%,CN1C(=O)C(O)(c2nnc(-c3ccccc3)o2)c2ccccc21 (centres undefined)
-10%,.,-18%,-0.7%,COC(=O)[C@]1(S(=O)(=O)c2ccccc2)C[C@@H]2ON=C(c3ccc(OC)cc3)[C@@H]2C1
-36%,2,2%,-2.0%,CC(C)CC(NC(=O)c1ccco1)C(=O)Nc1ccc2c(c1)OCCO2 (centres undefined)
4%,1,-5%,3.4%,Cc1cc(C)cc(SCc2noc(C(=O)NC(C)C)c2C(=O)O)c1
-28%,3,0%,0.3%,CC(C)(C)C(=O)Nc1nnc(CSCc2ccccc2F)s1
?,24,?,?,COc1ccc(CCNc2c3ccccc3nc3ccccc23)cc1OC
-4%,12,3%,5.6%,CCC(=O)Nc1ccc(NC(=O)CSc2nnc(C(C)C)n2C)cc1
-62%,0,1%,-2.1%,Cc1cc(-c2ccc(Br)cc2)n[nH]1
-17%,0,1%,-4.5%,COc1ccc(C(=O)NCCSc2ccc(C)cc2)cc1
-9%,-4,1%,2.8%,O=C(NCC1CCCO1)c1ccc(CSCc2cccc(F)c2)o1 (centres undefined)
0%,5,-9%,1.6%,COc1cccc(Nc2cc(N3CCOCC3)c3nonc3c2[N+](=O)[O-])c1
-1%,0,-8%,6.1%,O=C(CSc1nc2ccccc2c(=O)n1Cc1ccccc1)NCc1ccco1
28%,1,0%,-3.9%,Cc1nc(SCC(=O)c2cccc([N+](=O)[O-])c2)n[nH]1
.,.,8%,-3.6%,Cc1cccc(C)c1NC(=O)COC(=O)c1c(C)nn(-c2ccccc2)c1C
-41%,.,-8%,-1.4%,COC(=O)c1sccc1NC(=O)Nc1ccc(C)cc1
3%,-7,3%,0.2%,O=C(N/N=C/c1cc([N+](=O)[O-])ccc1O)Nc1ccccc1
-33%,-5,-14%,3.3%,Cc1nnc(NC(=O)c2ccccc2F)s1
-8%,.,-6%,-1.7%,COc1ccc2cc3cc(C(=O)N4CCN(C5CCCCC5)CC4)oc3nc2c1
-7%,4,-12%,-3.9%,COc1ccccc1OCC(=O)NCCc1nc2ccccc2[nH]1
-8%,-14,1%,-1.0%,Cc1cccc2cc(CN(Cc3ccc(F)cc3)C(=O)N3CCOCC3)c(=O)[nH]c12
.,.,1%,-1.3%,COc1ccc(-c2oc(=O)c3cc(OC)c(OC)cc3c2/C=C/c2ccc([N+](=O)[O-])cc2)cc1
0%,3,.,.,OCc1ccccc1N=c1ssnc1Cl
2%,.,6%,0.1%,O=C(c1ccc(OC2CCN(Cc3cccc(OCCO)c3)CC2)cc1)N1CCCC1
1%,.,-1%,-0.7%,COc1ccccc1N1CCN(C2CCCN(C(=O)CCC(C)=O)C2)CC1 (centres undefined)
2%,.,11%,5.2%,CC(C)(C)NC(=O)CN(Cc1ccc2c(c1)OCO2)C(=O)CNS(=O)(=O)c1ccc(F)cc1
-1%,2,2%,2.2%,C[C@@H](C(=O)Nc1cccc(S(=O)(=O)N2CCOCC2)c1)N1C(=O)C2CC=CCC2C1=O (some centres undefined)
-3%,-4,22%,3.5%,Cc1ccc(C(CC(=O)N2CCCC2)c2ccccc2)c(O)c1C (centres undefined)
0%,3,1%,0.3%,CC12c3ccccc3C(c3ccccc31)C1C(=O)N(Cc3cccnc3)C(=O)[C@H]12 (some centres undefined)
-7%,-5[21.1 µM],-8%,-0.3%,Cc1cccc(-n2nc(CC#N)c(C#N)c2N)c1
1%,13,-9%,3.5%,O=C(NCc1ccco1)c1ccc2c(c1)C(=O)N(C1CCCCC1)C2=O
0%,?,4%,1.6%,CCOC(=O)c1oc2ccccc2c1NC(=O)COc1ccc(F)cc1
4%,.,5%,2.7%,Cc1cc(C)c(S(=O)(=O)N2CCN(C(=O)c3ccc4c(c3)OCO4)CC2)c(C)c1
-51%,0,-13%,0.5%,O=C(Nc1ccccc1)N1CCC(c2ccccc2)C1 (centres undefined)
.,.,-20%,0.0%,COc1ccc(NC(=O)CN(C)C(=O)c2cc(-c3cccs3)nn2-c2ccccc2)cc1
-7%,-12,?,?,CC(=O)Nc1ccc(S(=O)(=O)Nc2nc3ccccc3nc2Nc2ccc(N)cc2)cc1
-3%,3,-14%,1.2%,COc1cc(NC(=O)C2CC2)c(C(=O)O)cc1OC

(further entries)
miR-21 reporter,GLA inh pH 4.5,Rango release inh,Rango complex inh,molecule
.,.,-3%,0.1%,Cc1ccc(C)c(S(=O)(=O)N2CCN(C(=O)c3ccc4ccccc4n3)CC2)c1
.,.,-12%,-0.5%,O=C(COc1ccc(F)cc1)Nc1ccc(S(=O)(=O)Nc2ncccn2)cc1
-4%,-3,?,-3.4%,CCc1noc(C)c1C(=O)N1CCCC(CCC(=O)NCc2cccc(OC)c2)C1 (centres undefined)
-7%,0,17%,?,O=C(NCCCN1CCN(c2cccc(Cl)c2)CC1)c1cccc(N2CCCC2=O)c1
9%,.,13%,-1.4%,CC(=O)c1c(O)c2ccccc2n(Cc2ccccc2)c1=O
0%,.,7%,-3.2%,CN(Cc1ccccc1)C(=O)CN1C(=O)c2ccccc2C1=O
-2%,5,-1%,-2.6%,O=C(NCC(=O)N(c1cccc(F)c1)C(C(=O)NC1CCCC1)c1ccco1)c1ccco1 (centres undefined)
-28%,-1,-1%,3.3%,O=C(COC(=O)c1cccs1)c1ccc2ccccc2c1
.,.,-14%,-3.4%,Cc1ccc(C(=O)Nc2cccc(S(=O)(=O)N3CCCCC3)c2)cc1S(=O)(=O)N1CCOCC1
-1%,.,-15%,-1.5%,COc1ccccc1CNS(=O)(=O)c1ccc2c(c1)CCCN2C(C)=O
-2%,.,19%,-0.5%,COc1cccc(N(CC(=O)N2CCCC2)S(C)(=O)=O)c1
-7%,2,-2%,-3.5%,CCN(CC)c1ccc(C2N(C(=O)N3CCOCC3)CCN2S(=O)(=O)c2ccc(C)cc2)cc1 (centres undefined)
-45%,-9,2%,0.4%,CC(C)Oc1ccc(C2c3c(oc4ccccc4c3=O)C(=O)N2CCCN2CCOCC2)cc1 (centres undefined)
.,.,-8%,3.4%,CCCOc1ccccc1OCC(=O)Nc1cccc(S(=O)(=O)NC2=NCCC2)c1
-7%,-11,1%,4.2%,COc1ccccc1C(=O)CSc1n[nH]c(N)n1
.,.,-17%,0.1%,O=C(O)/C(=C\c1cccc(C(F)(F)F)c1)c1ccc(S(=O)(=O)N2CCCC2)s1
-10%,-3,-6%,0.3%,CCOc1ccc(C2CC(c3cccc(Cl)c3)n3nc(N)nc3N2)cc1 (centres undefined)
1%,0,1%,-3.6%,O=C1NN(c2ccccc2)C(=O)C2C3C=CC(C4CC34)C12 (centres undefined)
0%,2,-11%,-0.8%,COc1ccc(NC(=O)CC2C(=O)N(c3cccc(OC)c3)C(=O)N2C(C)C)cc1 (centres undefined)
-55%,.,4%,2.0%,O=S(=O)(/N=C(/NC(=S)Nc1ccccc1)c1ccccc1)c1ccc(Cl)cc1
9%,.,2%,-1.6%,O=C(CCn1nc(-c2ccc(Cl)cc2)ccc1=O)N1CCN(c2ccccc2)CC1
.,.,-20%,-3.4%,C/C=C/c1ccc(O)c(OC)c1
.,.,6%,-0.1%,Cc1ccc(Nc2nnc(SC(C)C(=O)NC3CC3)s2)cc1 (centres undefined)
-2%,5,?,-0.4%,O=C(CSc1nnnn1-c1cccc2ccccc12)NC(C(=O)O)(c1ccccc1)c1ccccc1
-2%,-14,-4%,-0.2%,CCOC(=O)C(=O)/C(C#N)=C/Nc1ccccc1
-9%,-9,?,1.6%,O=C(NCc1cccnc1)c1ccc(Cl)c(Cl)c1
-11%,-3,0%,0.4%,Cc1cc(Cl)c(S(=O)(=O)N/N=C/c2ccc3c(c2)OCO3)c(Cl)c1
-45%,.,9%,-1.9%,CSc1ccccc1OCc1cc(C(=O)N(C)Cc2cc(C)[nH]n2)no1
-6%,-3,8%,-3.3%,CSc1ccc(Cl)c(C(=O)OCC(=O)Nc2ccccc2OC(F)F)c1
-1%,.,14%,-1.6%,O=C(Nc1ccc(NC(=O)c2ccco2)cc1)c1ccco1
-17%,-6,?,?,CCN1CCN(CCNC(=O)c2ccc(/C=C3\Sc4ccccc4N(Cc4ccccc4F)C3=O)cc2)CC1
4%,-14,0%,5.0%,CCOC(=O)Cn1c(=O)oc2cc(S(=O)(=O)Nc3ccc(N(CC)CC)cc3C)ccc21
-12%,0,?,?,C=CCN1C(=O)/C(=C/c2ccc(O)cc2)S/C1=N/c1nccs1

The list is partial; the hit share may differ from the screen's.
